D2 ag: activates the human D2 dopamine receptor | P14416 | hit rate 0.084% among 360,000 | AID 624465 | activation, % (concentration not given with the values) | DiscoveRx PathHunter D2 beta-arrestin, luminescence, 90 min; 100% = 57 uM dopamine signal; in the data active = activation above about 40%; inconclusive = about 15% to 40%; inactive = below about 15%; further: compound concentration not given in the record; the text of the record calls up to 30% inactive
Target sequence (P14416 whole entry, looked up): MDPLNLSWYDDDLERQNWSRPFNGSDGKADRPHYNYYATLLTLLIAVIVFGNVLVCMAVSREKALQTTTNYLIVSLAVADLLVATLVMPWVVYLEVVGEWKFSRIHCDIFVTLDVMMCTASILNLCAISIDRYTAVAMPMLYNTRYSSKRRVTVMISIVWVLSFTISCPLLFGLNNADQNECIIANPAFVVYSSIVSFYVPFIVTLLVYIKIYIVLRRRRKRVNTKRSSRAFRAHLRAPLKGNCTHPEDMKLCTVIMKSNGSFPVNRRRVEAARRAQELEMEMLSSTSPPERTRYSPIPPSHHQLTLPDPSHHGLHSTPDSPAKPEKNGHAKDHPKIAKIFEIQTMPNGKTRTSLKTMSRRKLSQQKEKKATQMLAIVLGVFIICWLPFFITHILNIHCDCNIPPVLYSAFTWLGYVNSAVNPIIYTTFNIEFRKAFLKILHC
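DiscoveRx PathHunter D2 beta-arrestin cells (2,100/well) attached overnight, then compound-stimulated 90 min at 37 C in HBSS/10 mM HEPES/0.1% Tween-20 buffer; beta-galactosidase complementation read by luminescence after 1 h at ambient temperature. Dopamine 57 uM final (EC100) as control.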
CtBP-E1A blk: blocks the CtBP interaction with E1A. AlphaScreen GST-E1A/His-CtBP binding, 1536-well; hits give low values; control for the full effect not named in the record. activity change, % (concentration not given with the values). hit rate 0.49% among 340,000; in the data active means activity change below about -65%; inconclusive means about -30% to -65%; inactive means above about -30%; further: on the % scale 0 is the no-effect control and ±100 the full control effect
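In 5 uL wells, 23 nL compound meets equimolar GST-E1A and His-CtBP (5X stock 125 nM each) for 2 h, 37 °C. Beads (5X, 50 ug/mL) then 1 h, 37 °C, dark.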
Six1-Eya2 blk: inhibitors of human Six1/Eya2 interaction | activity change, % (no concentration beside the values) | Q15475+O00167 | AlphaScreen GST-Six1/His-Eya2 binding, biochemical; hits give low values; control for the full effect not named in the record | hit rate 0.56% among 360,000; in the data active = activity change below about -65%; inconclusive = about -30% to -65%; inactive = above about -30%; further: on the % scale 0 is the no-effect control and ±100 the full control effect; compound concentration not given in the record
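AlphaScreen luminescence read after one hour at 37 °C in darkness. Pin-transferred compounds met GST-Six1 and His-Eya2 protein (5X stock 250 nM/500 nM) plus glutathione donor and Ni-chelate acceptor beads (5X, 50 ug/mL).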
Sfp inh: blocks B. subtilis Sfp PPTase activity. Potency, µM, for the others: max response, negative = inhibition, hits mostly inhibitors. Biochemical Sfp PPTase activity, qHTS. AID 1490. hit rate 3.5% among 310,000. Q9F4F7; active means well fitted inhibition curve with a large enough effect; inconclusive means small, poorly fitted or top-dose-only effect, or another doubt; inactive means no such curve, though single readings can be large or run the other way;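 further: the enzyme is Sfp with the accession as filed and its product quenches rhodamine fluorescence; potency means the concentration at half of the fitted maximal effect; 0% = enzyme reaction without inhibitor and -100% = no enzyme wells; top concentration of the series not given in the record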
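Step 1, compound plus 15 nM Sfp-PPTase, 15 min, room temperature. Step 2, add rhodamine-CoA (5 uM) and BHQ-2-YbbR (12.5 uM). Step 3, read 525/598 nm fluorescence at 0 and 30 min.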
PINK1 modulator: PINK1 expression modulation | PINK1 immunofluorescence, high-content cytometry, 24 h | Potency, µM (titrated, usually from 76.6 µM), inactives show at the top dose activation (PINK1 increase), most hits filed as activators | hit rate 0.2% among 410,000; active = well fitted activation curve with a large enough effect; inconclusive = small, poorly fitted or top-dose-only effect; inactive = flat fitted curve, though single readings scatter; cell line not stated here;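 further: potency means the concentration at half of the fitted maximal effect; % of control where 0% means no effect; nearly all actives have a fitted effect of over 65% in size; a mitochondrial uncoupler was the plate control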
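PINK1 protein, normally rapidly degraded, was detected by immunofluorescence after 24 hour compound treatment of a stable cell line. Titration data (5 concentrations) came from laser-scanning cytometry, with CCCP-treated wells as controls.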
TRPV1 potentiator: enhances activation of the human vanilloid receptor TRPV1; TRPV1-expressing cells, Fluo-8 calcium influx, capsaicin EC20 potentiation; host cell line not named in the record; control for the full effect not named in the record; Q8NER1; hit rate 0.02% among 320,000; potentiation, % at 8.33 µM; active means potentiation above 80%; inconclusive means 30% to 80%; inactive means below 30%; further: 0% is about no effect
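Fluo-8 calcium influx in TRPV1-expressing cells, kinetic read (ex 480/em 520 nm). Compound added and read 3 min for agonist activity, followed by capsaicin at EC20 final and 2 min further read for enhancement.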
D2 potentiator: positive allosteric modulators of human D2 dopamine receptor. P14416. DiscoveRx D2 beta-arrestin cells, luminescence, 90 min; 100% = 57 uM dopamine signal. potentiation, % (test concentration not listed). hit rate 0.23% among 360,000. AID 624464; active = potentiation of 50% or more; inconclusive = 30% to 50%; inactive = 30% or less;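 further: compound concentration not given in the record; tested on top of an EC20 dose of dopamine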
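PathHunter D2 cells, attached overnight at 37 deg C, received compound in DMSO plus dopamine at EC20 (50 nM final) for 90 min at 37 deg C. Beta-arrestin recruitment was read as luminescence after 1 h with detection reagent at ambient temperature.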
* marks the source's active call; other numbers are inactive results; ? = inconclusive; nt = not tested or not shown; [ ] = dose if it differs, or a comment.

SMILES	D2 ag	CtBP-E1A blk	Six1-Eya2 blk	Sfp inh	PINK1 modulator	TRPV1 potentiator	D2 potentiator
CC(C)(C#N)N([O-])C=C[N+](=O)C(C)(C)C#N	-2.3	8	-1	0%	5.2%[38.3 µM]	11	0
CCC1CCCCN1C(=O)COC(=O)c1cc(Br)ccc1Cl (centres undefined)	-2.1	-12	4	10%	3.0%	-16	-9
COC(=O)C[C@H]1C[C@H]2c3cc(NC(=O)CC4CC4)ccc3O[C@H]2[C@H](CO)O1	-1.0	3	15	nt	1.0%	nt	10
O=C(O)c1ccc(COc2ccccc2C=C2C(=O)c3ccccc3C2=O)cc1	-5.4	-2	-1	-6%	0.2%	0	-15
O=C(c1ccc(=O)[nH]c1)N1CCCc2ccccc21	-4.7	-3	0	12%	-0.4%	11	-9
Cc1cc(C)c2nc(N3CCCC(C(=O)NC4CCCC4)C3)sc2c1 (centres undefined)	-7.3	-2	1	-3%	?	-9	-7
O=C(NC1=NCCS1)c1ccc(F)c(S(=O)(=O)N2CCOCC2)c1	-1.4	nt	9	nt	4.2%	nt	-11
Nc1cccc(S(=O)(=O)NC2=NCCC2)c1	-2.2	4	3	24%	0.1%	5	0
O=C(OCC(=O)N1CCN(C(=O)c2ccco2)CC1)c1ccc(Cl)cc1	4.5	3	-2	nt	-1.5%	-5	-2
Cc1ccc(NC(=S)NC(NC(=O)C(C)(C)C)C(Cl)(Cl)Cl)c(C)c1 (centres undefined)	0.7	0	4	20%	2.5%	-2	0
O=C1c2ccsc2SCCN1Cc1ccccc1	7.2	0	7	10%	-0.4%	-4	6
CCc1ccc(NC(=O)CNS(=O)(=O)c2c(C)noc2C)cc1	-1.2	2	7	19%	2.2%	-17	-17
C[C@H]1COC(=O)[C@@H](NC(=O)OCC2c3ccccc3-c3ccccc32)C/C=C\C[C@H](CC(=O)NCCO)C(=O)N1	-4.0	8	7	nt	4.9%	nt	0
CN1/C(=C\C(=O)COC(=O)CN2C(=O)C3CC=CCC3C2=O)C(C)(C)c2ccccc21 (centres undefined)	2.2	-1	-2	0%	-1.5%	8	-20
O=C(Cc1cccs1)N/N=C/C=C/c1ccccc1[N+](=O)[O-]	0.4	-4	-3	19%	1.3%	-12	-16
O=C(CN1C2CCCC1CC(NC(=O)c1ccccc1)C2)Nc1ccccc1C(F)(F)F (centres undefined)	6.3	-24	-12	16%	5.4%	-6	-5
Cn1nnnc1SCCNCc1ccccc1OCc1ccccc1	-3.1	-1	-4	14%	-0.3%	-6	-20
CCOc1ccc(NC(=O)c2ccccc2NS(C)(=O)=O)cc1	-1.8	-2	5	12%	4.3%[38.3 µM]	-15	-11
CC1=CCC2C(=O)N(C(C)c3ccccc3)C(=O)C2C1 (centres undefined)	0.3	1	1	10%	1.8%[38.3 µM]	-1	-2
COC(CN(C)C(=O)c1ccc2c(c1)NC(=O)c1ccccc1S2)OC	-1.9	nt	3	6%	0.8%	-2	-6
COC(=O)C1C=CC(OC2OC(COC(C)=O)C(OC(C)=O)C(OC(C)=O)C2OC(C)=O)n2c(=O)n(-c3ccccc3)c(=O)n21 (centres undefined)	-0.1	-9	11	nt	-1.6%	nt	-16
O=C(NCc1ccc(F)cc1)c1ccc(NC(=O)C2CCCO2)cc1 (centres undefined)	-0.5	-4	4	22%	6.0%	12	-3
O=C(Cc1ccccc1)N1CCCC(c2nc(-c3ccc(S(=O)(=O)N4CCCC4)cc3)no2)C1 (centres undefined)	1.3	5	-2	10%	nt	3	-9
COc1ccc(-c2[nH]ncc2CNC(C)c2cn(C)nc2C)c(F)c1 (centres undefined)	-6.2	nt	17	13%	-1.7%	12	5
Cc1c(Br)c(O)c(Br)c(O)c1/C=N/n1c(-c2ccccc2)n[nH]c1=S	-1.1	?	-25	?	0.3%	16	1
CCOC(=O)CC(NC(=O)CCc1c(C)nc2nc(C)nn2c1C)c1ccc(OC(C)C)cc1 (centres undefined)	2.5	6	1	14%	0.2%	2	-6
Cc1ccc(NC(=O)NC(=O)COc2ccccc2C(N)=O)c(C)c1	-0.4	2	-1	nt	0.0%	-6	-4
CC(C)CCNC(=O)C1CC(c2cccc([N+](=O)[O-])c2)=NO1 (centres undefined)	-5.7	2	-5	9%	-0.4%	-13	-10
CCOC(=O)c1nn(-c2ccc(F)cc2)c2nc(Nc3ccccc3)cc(=O)n12	-4.8	-1	-16	10%	-1.7%	?	-4
COc1ccc(C2CC(c3ccc(OC)cc3O)=NN2C(=O)c2ccccc2)cc1 (centres undefined)	-5.1	4	-18	-8%	0.3%	5	-2
CCOC(=O)C1=C(N)Oc2cc(O)ccc2C1c1ccccc1 (centres undefined)	-3.1	nt	-2	6%	5.0%	-20	-1
O=C(COc1ccc([N+](=O)[O-])cc1)Nc1cccc2nsnc12	-1.0	-4	19	-1%	?	5	9
CCN(CC(=O)NC1CCS(=O)(=O)C1)c1ccc(S(C)(=O)=O)cc1[N+](=O)[O-] (centres undefined)	0.9	-6	13	3%	1.6%	-28	-5
O=C(CCCSc1nc2ccccc2[nH]1)N1CCN(c2ccc([N+](=O)[O-])cc2)CC1	-3.0	5	4	9%	-0.3%	16	0
CCOC(=O)N1CCN(c2c(NCc3ccccc3Cl)c(=O)c2=O)CC1	-2.7	nt	6	21%	8.8%	-6	-10
Cc1ccc(NC(=O)CNC(=O)c2ccco2)cc1	-0.5	-1	-13	0%	2.0%	5	-5

Filtered by structure: the compounds so far with a Cl atom
SMILES	D2 ag	CtBP-E1A blk	Six1-Eya2 blk	Sfp inh	PINK1 modulator	TRPV1 potentiator	D2 potentiator
CCC1CCCCN1C(=O)COC(=O)c1cc(Br)ccc1Cl (centres undefined)	-2.1	-12	4	10%	3.0%	-16	-9
O=C(OCC(=O)N1CCN(C(=O)c2ccco2)CC1)c1ccc(Cl)cc1	4.5	3	-2	nt	-1.5%	-5	-2
Cc1ccc(NC(=S)NC(NC(=O)C(C)(C)C)C(Cl)(Cl)Cl)c(C)c1 (centres undefined)	0.7	0	4	20%	2.5%	-2	0
CCOC(=O)N1CCN(c2c(NCc3ccccc3Cl)c(=O)c2=O)CC1	-2.7	nt	6	21%	8.8%	-6	-10

Next part:
SMILES	D2 ag	CtBP-E1A blk	Six1-Eya2 blk	Sfp inh	PINK1 modulator	TRPV1 potentiator	D2 potentiator
CNC(=O)c1c(NC(=O)c2cccc(C)c2)sc2c1CCC2	4.1	-7	1	-16%	4.7%	-4	-4
Cc1ccc(CNS(=O)(=O)c2ccc3c(c2)n(C)c(=O)n3C)cc1	2.8	2	9	-5%	-1.5%	1	-3
CCSc1cnc(-c2ccccc2)n1CC	2.7	-3	-7	15%	-0.4%[38.3 µM]	-28	1
Cn1cc(C(=O)NCCO)c(=O)c2ccccc21	-0.7	5	1	19%	1.9%	3	2
Cc1ccc(CNC(=O)CC(C)S(=O)(=O)c2ccc3c(c2)NC(=O)CS3)o1 (centres undefined)	4.7	-1	-5	25µM*	0.5%	0	-15
Cc1ccc2nc(-c3ccccc3)c(CC(=O)O)c(C(=O)O)c2c1	9.7	nt	-16	10%	2.2%	-2	5
Cc1cc(C(=O)NCCCN2CCCC2=O)cs1	-1.3	-9	-2	17%	-2.2%[38.3 µM]	-13	-11
COc1ccc(OC)c(C2C(C(=O)c3ccco3)=C(O)C(=O)N2Cc2cccnc2)c1 (centres undefined)	-2.7	2	4	2%	-0.3%	6	-7
O=S(=O)(c1cccc(-c2cn3cccnc3n2)c1)N1CCOCC1	-3.3	4	-3	-4%	13%[38.3 µM]	22	0
Cc1ccc(C)c(NC(=S)N(Cc2cccc(Br)c2)CC2CCC(C(=O)O)CC2)c1 (centres undefined)	-1.1	nt	0	2%	-0.9%	8	-10
O=[N+]([O-])c1ccc(NCCCN2CCOCC2)c(Cl)c1	-4.5	0	-3	19%	-2.7%[38.3 µM]	-1	-14
C[C@H](CO)N1C[C@H](C)[C@@H](CN(C)S(C)(=O)=O)Oc2ccc(N(C)C)cc2C1=O	-4.6	0	3	nt	-0.2%	nt	-7
COc1cc(C(=O)NCCCCCCNC(=O)c2cc(OC)c(OC)c(OC)c2)cc(OC)c1OC	-5.1	-4	5	1%	2.7%	4	-2
CN(C(=O)COC(=O)c1ccc(C#N)cc1)c1ccccc1	3.4	3	20	-8%	0.5%	14	-2
CN(CC(=O)NC1CCCc2ccccc21)S(=O)(=O)c1cccs1 (centres undefined)	-0.9	8	12	4%	-0.3%	-6	13
O=C(O)c1cc(NC(=O)c2ccc(Cl)c([N+](=O)[O-])c2)cc(C(=O)O)c1	-5.8	7	7	2%	2.5%	?	-4
O=C(Nc1ccc2c(c1)OCO2)C1CCN(Cc2cnn(-c3ccccc3)c2-n2cccc2)CC1	-1.5	-17	-21	11%	-2.2%	-12	-13
Oc1ccc2ccccc2c1C=Nc1ccccc1	0.0	1	6	-6%	-1.5%	24	1
Cc1ccc(S(=O)(=O)N2[C@@H](c3cccc(Cl)c3)C(C(=O)O)=CC[C@H]2c2ccc3c(c2)OCO3)cc1	-2.8	nt	-5	nt	0.2%	-5	-11
CCN(Cc1ccccc1)S(=O)(=O)c1ccc(C(=O)Nc2nnc(C3CC3)o2)cc1	6.0	-21	-1	6%	-0.1%	nt	-5
O=C(Cn1nc(-c2ccc(Cl)cc2)ccc1=O)NCC1CCCO1 (centres undefined)	-3.4	3	1	20%	0.7%	nt	-2
O=C(CN1CCCCC1)Nc1ccc(NC(=O)c2ccccc2Cl)cc1Cl	-0.7	5	4	2%	?	0	-6
Cc1cccc(N(CC(=O)NC2CCCCC2)C(=O)c2ccc(C)s2)c1	-0.8	4	1	14%	-0.5%[38.3 µM]	-26	-5
Cn1c(-c2cccc(Br)c2)n[nH]c1=O	-7.4	-5	-5	3%	-1.8%	10	-6
CN1CCN(/C=C(\C#N)S(=O)(=O)c2ccc(Cl)cc2)CC1	0.5	4	1	5%	-2.5%	-8	-10
Cc1ccc(OC(=O)c2cccc(C(=O)Oc3ccc(C)cc3)n2)cc1	-0.9	-11	3	-5%	-0.7%	-3	-8
NC(=O)CC(NC(=O)Cc1ccc(Cl)cc1)c1ccc(NCCN2CCOCC2)c([N+](=O)[O-])c1 (centres undefined)	-0.2	3	1	19%	2.2%	-13	-14
CC(Sc1nc(-c2ccccc2)nc2c1COC(C)(C)C2)C(=O)N1CCOCC1 (centres undefined)	-0.2	-3	-1	6%	nt	-21	-4
COc1cc2[nH]c(=O)n(CCCCCC(=O)NCCCN3CCCC3=O)c(=O)c2cc1OC	-2.4	-8	-11	3%	5.8%[38.3 µM]	nt	-14

Compound activity (PubChem BioAssay)
